# Compound activity (PubChem BioAssay)
# NPYLR7 ag – agonists of mosquito NPYLR7 receptor, primary screen, cell-based, Aedes aegypti, calcium fluorescence, mosquito biting behavior; Aedes aegypti neuropeptide Y-like receptor 7 (NPYLR7); HEK293T NPYLR7/Galpha15, GCaMP6s calcium fluorescence; activation, % at 10 µM; 270,000 compounds, 0.15% hits; in the data active = activation above about 40%;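 also: 0% = vehicle and 100% = reference agonist at the receptor; some compounds past the cut are filed as inactive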
# NPYLR7 ag max-min – recorded beside NPYLR7 ag, whose call it bears; activation, %; measured here: Max-Min RFU normalised activation; some inactives read as strong as hits;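 span of the calcium signal over five minutes; 0% = vehicle and 100% = native peptide agonist; compound fluorescence can raise it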
# * = called active by the depositor. Only part of the results is shown (hit frequency here may not be typical).
# Fields: NPYLR7 ag, NPYLR7 ag max-min
COc1ccc(Cl)cc1NC(=O)c1cc2cccc(OC)c2oc1=O
    -1, -11
CCc1ccc(NC(=O)c2cc(N3CCNC3=O)ccc2F)cc1
    -4, -7
Cc1c(C(=O)NCc2cccc(Cl)c2)sc(=O)n1Cc1ccc(S(C)(=O)=O)cc1
    12, 5
O=C(c1cc2ccccc2oc1=O)N1CCN(Cc2nc(-c3ccco3)cs2)CC1
    -14, -18
Cc1ccc2oc(CN(Cc3cc(F)ccc3F)C(=O)c3cnn(-c4ccccc4)c3C(F)(F)F)nc2c1
    7, 10
O=C(NCCC1CC1)Nc1cccc(CSC2CCOCC2)c1
    7, 4
Cc1nc2sccn2c1CN1CCC(C(Cc2ccccc2)N(C)C(=O)C2CCOCC2)CC1 (stereo unspecified)
    30, 15
CCOC(=O)C1=C(C)N=c2s/c(=C/c3cccc(Br)c3)c(=O)n2C1c1ccc(C)cc1 (stereo unspecified)
    -4, -9
CC1CN(Cc2ccc(Br)cc2)c2ccccc2N(C)C1=O (stereo unspecified)
    2, -2
CCOC(=O)C1(CCCc2ccccc2)CCCN(C(=O)c2snnc2C)C1 (stereo unspecified)
    13, 5
CCC(=O)Nc1c(OC(=O)N(CC)CC)ccc2c1ccn2Cc1ccccc1Cl
    1, 8
CCOC(=O)C1(C)CCCN1C(=O)c1ccco1 (stereo unspecified)
    3, 2
COC(=O)c1cc(=O)n2c(n1)sc1cc(OC)ccc12
    -1, 0
O=S(=O)(N1CCCC1)N1CCOC(Cc2cccc(C(F)(F)F)c2)C1 (stereo unspecified)
    15, 9
CCC(NC(=O)CCc1nnc(CCc2ccccc2)o1)c1ccc(F)cc1 (stereo unspecified)
    2, 0
CCOC(=O)CSc1nnc(CNC(=O)c2ccc(OC)cc2)n1CC
    -1, -5
Cc1cccnc1C1=NOC(C)C(=O)N1Cc1ccccc1F (stereo unspecified)
    9, 5
COc1ccc(-c2cc3c(cn2)nc(NCc2cccc(C)c2)n3C)cn1
    11, 1
COCc1ccc(CN2CCCC(C(=O)Nc3ccc(-c4cccc(OC)c4)cc3)C2)o1 (stereo unspecified)
    5, 2
Cc1cccc(Nc2ncccc2C(=O)NCC2COc3ccccc3O2)c1C (stereo unspecified)
    -7, -13
O=C(CCc1nnc(Cc2c[nH]c3ccccc23)o1)NCC1OCCc2ccccc21 (stereo unspecified)
    0, -2
O=S(=O)(NCCNc1ccc(Nc2cccnc2)nn1)c1ccc(-c2ccccc2)cc1
    0, -1
C=CCNC(=S)C(=C([O-])c1ccc(Cl)s1)[n+]1ccccc1
    1, 1
CN1CCC(NC(=O)c2cc(-c3c(O)cc(O)cc3Oc3ccc([N+](=O)[O-])cc3)on2)CC1
    4, 3
Cc1cccc(C(=O)N2CCN(c3cc(C)ccc3F)C(=O)C2C)c1 (stereo unspecified)
    29, 40
CC(C)(C)c1ccc(C(=O)Nc2nc(-c3ccc([N+](=O)[O-])cc3)cs2)cc1
    -2, -3
CC1CCN(c2ccc(NC(=O)c3ccc(Cl)cc3Cl)cc2C(=O)NCCc2ccccc2)CC1
    17, 15
Cc1ccc(N(Cc2ccco2)C(=O)CN2C(=O)c3ccccc3C2=O)cc1
    -1, 12
N#CC1C(=N)OC2=C(C(=O)CCC2)C1c1ccccc1Cl (stereo unspecified)
    -13, -20
Cc1cc(Oc2cccc(F)c2)nc(SCc2ccc(F)c(F)c2)n1
    21, 20
O=C1CC2(CCN(C(=O)Cc3ccc4c(c3)OCO4)CC2)CN1
    -4, -4
FC(F)(F)c1cccc(C=Cc2nc3ccccc3o2)c1
    6, 1
COCCNC(=O)C(C1CCCC1)N1CCN(C(=O)c2ccco2)CC1 (stereo unspecified)
    -4, -2
Cc1c(C(=O)NCc2cccs2)cnn1-c1ncc2c(n1)-c1ccccc1CCC2
    18, 5
CCN(CC)C(=O)c1cc(NC(=O)Nc2cccc(Br)c2)ccc1N1CCCC1
    -7, -10
COc1cccc(C(N)c2ccccc2Cl)c1 (stereo unspecified)
    7, 2
Cc1ccccc1OCC(O)CN(Cc1cccn1C)C1CC1 (stereo unspecified)
    -15, -17
CCN(Cc1cccs1)C(C)C(=O)N1CC(=O)Nc2ccccc21 (stereo unspecified)
    -2, -3
CC(C)C1CN(C(C)C(=O)NC(=O)NCc2ccccc2)CCS1 (stereo unspecified)
    -1, -7
CCOc1cccc2c1OC[C@@H]1CN(CCC#N)C(=O)CCN(C(=O)c3ccc(OC)cc3)[C@H]21
    28, 32
O=C1CCCN1CCCN1COc2ccc3c(=O)c(-c4ccccc4)coc3c2C1
    -1, -4
Cc1cc(C)c(C)c(S(=O)(=O)Nc2cc(SCC(=O)O)c(O)c3ccccc23)c1C
    -3, -7
CCN(CC(C)(C)O)C(=O)Nc1cccc(N(C)C(C)C)c1
    0, 0
Cc1nccn1-c1ccc(NC(=O)COC2CCCCC2)cc1F
    0, -3
O=C1C=CC(=O)N1Nc1nc(=O)[nH]c2ccccc12
    1, -2
C=CCN1C(=O)C(CSCC(=O)O)NC1=S (stereo unspecified)
    6, 8
Cc1cc(C)n2c3c(c(C#N)c2n1)CCCC3
    4, 1
CCCCC1C=CCN1C(=O)c1cccc2ccnn12 (stereo unspecified)
    5, 4
Cc1cc2c(=O)n(C)c(SCc3ccc(Cl)cc3)nc2s1
    -3, -3
O=C1OC(c2cccc(Br)c2)=N/C1=C\C=C\c1ccccc1
    -1, -7
Cc1noc(C(C)C)c1C(=O)NC1CCN(C2CC2)CC1
    3, 2
O=C(OCc1cccc2c1OCCO2)C1CCS(=O)(=O)C1 (stereo unspecified)
    0, -1
O=C1OC(=C2C(=O)C(=O)N(c3ccccc3)C2c2ccccc2)C=C1Nc1ccccc1 (stereo unspecified)
    4, 36
CCOC(=O)C1CCN(C(=O)c2ccc(-n3nc(-c4ccccc4)cc3NC(C)=O)cc2)CC1
    -8, -12
CC(C)(C)c1ccc(C(=O)NCCNc2ccc(Nc3cccnc3)nn2)cc1
    -1, -2
COc1ccc(N2CCN(c3cc(C(=O)NCCC4CCCN4C)c4ccccc4n3)CC2)cc1 (stereo unspecified)
    9, 16
COc1ccccc1C(=O)Nc1ccc(Cl)c(-c2nc3ccc(C)cc3o2)c1
    -8, -12
CCOc1ccccc1N1CCN(C(=O)c2cc(-c3ccccc3)nn2-c2ccc(C)cc2C)CC1
    -3, 1
COc1ccc(/C=C2\Oc3c4c(cc(C)c3C2=O)OCN(C2CCS(=O)(=O)C2)C4)cc1 (stereo unspecified)
    15, 10
CC(=O)Nc1ccc(C(=O)N(C)Cc2ccc(F)cc2F)s1
    -2, -2

# Next records:
# Fields: NPYLR7 ag, NPYLR7 ag max-min
O=P(NCc1cn2ccccc2n1)(c1ccccc1)c1ccccc1
    -6, -11
CC1(C(=O)Nc2ccc3nc[nH]c3c2)CCN1C(=O)Cc1ccc(-c2ccccc2)cc1 (stereo unspecified)
    -4, -10
CC(C)Nc1ccc(C(=O)NCCc2ccccc2F)cn1
    -3, -8
O=C(C#Cc1ccccc1)Nc1ccc(C(=O)NC23CC4CC(CC(C4)C2)C3)cc1
    2, 6
Cc1c(F)cccc1NC(=O)CNCCc1ccccn1
    4, 2
CN(C)C(=O)COC(=O)c1csc(-c2ccc3c(c2)OCCO3)n1
    12, 11
Cn1ccnc1CN1CCN(c2nc3nonc3nc2N2CCCCC2)CC1
    1, 2
Cc1ccc(-c2nc(N)nc3nc[nH]c23)c(-n2nc(C)cc2C)c1
    -1, -5
O=C1CCCN1CC1CCN(C(=O)c2ccc(-c3ccoc3)nc2)CC1
    7, 3
CC(Cc1cccnc1)NC(=O)c1cc(Cn2cnc3ccccc32)on1 (stereo unspecified)
    -5, -5
COc1cccc(-c2ccc3c(c2)N(Cc2ccc4c(c2)OCO4)C(=O)C(C)S3)c1 (stereo unspecified)
    10, 6
COc1cccc(CC2=NOC(C(=O)N3CCC(C(O)(c4ccccc4)c4ccccc4)CC3)C2)c1 (stereo unspecified)
    29, 10
CCNC(=O)N(Cc1cc(NC(=O)COC)ccc1N(C)C)C1CCCCC1
    -3, 3
CN(C)c1ccc(NC(=O)c2cn(C)c3c(=O)n(-c4ccccc4)c(=O)[nH]c23)cc1
    3, 2
Cc1ccc(CN2CCN(Cc3cnc(N4CCOCC4)nc3)CC2=O)cc1
    5, -4
O=C(c1ccccc1)C1CCCN(Cc2nc(COc3ccccc3)no2)C1 (stereo unspecified)
    -3, -5
COCC(=O)Nc1ccc(N2CCN(C(=O)c3cc(C)on3)CC2)nc1
    6, -2
CC(C)CN(CC(=O)N(CCc1c[nH]c2ccccc12)Cc1ccccc1)C(=O)c1ccco1
    2, 20
CN(CC(=O)NC(C)(C)C)C(=O)c1cc2cc([N+](=O)[O-])ccc2s1
    17, 9
Cc1cn2c3c(=O)n(Cc4ccccc4F)c(=O)n(C)c3nc2n1C
    16, 8
Cc1nn(Cc2ccccc2)c(Cl)c1C(=O)Nc1ccc(Cl)cn1
    3, 25
CC(=O)Nc1ccc(CC2CCN(C(=O)c3ccc(F)cc3C(F)(F)F)CC2)cc1
    1, 12
Cc1noc(C)c1N=Cc1ccc(F)c(F)c1
    5, 4
NC(=O)c1csc(-c2cccc3ccnn23)n1
    5, 3
CN1C[C@@H](N)C[C@H]1C(=O)NC(C)(C)CNc1cccc(Cl)c1
    -1, -7
CCc1cc(CN(C)C(=O)c2n[nH]c3ccc(C)cc23)on1
    5, 3
CNC(=O)Cn1nc(C)c2cnn(-c3ccc(F)cc3)c2c1=O
    2, -1
Cc1cc(Nc2cccc(=O)[nH]2)n(-c2ccc(Cl)c(Cl)c2)n1
    4, 2
O=C(NCc1cccnc1N1CCOCC1)c1cccc2nccnc12
    -2, -5
C=CCNC(=O)CSc1ncnc2c1nnn2C
    1, 8
COc1cccc(C(CN2CCN(S(=O)(=O)c3cccc(C(F)(F)F)c3)CC2)OCc2cccc(Cl)c2)c1 (stereo unspecified)
    22, 10
Cc1cc(C)cc(N=C2NC(=O)/C(=C/c3ccc(N(C)C)c(Br)c3)S2)c1
    -2, -6
CC(C)(C)NC(=O)COC(=O)C=Cc1ccc2c(c1)OCO2
    2, 1
COc1ccc(S(=O)(=O)N2CCC(Cc3ccccc3)CC2)cc1N1CCN(C(=O)[C@H](C)OC(C)=O)CC1
    2, 1
CCCCN1C(=O)CC(C(=O)OCc2cc(=O)n3nc(CC)sc3n2)C1c1ccc(OC)cc1 (stereo unspecified)
    3, 6
Cc1cccc(CO[C@]2(C(=O)NC3CC3)CC(OCc3ccccc3)[C@@H]3OC(C)(C)O[C@@H]3C2)c1 (stereo partly specified)
    18, 24
Cc1ccc(C(=O)Nc2cccc(F)c2)cc1S(=O)(=O)N1CCCCC1
    6, 0
COc1ccc(CN2CCNC(=O)C2CC(=O)NCc2ccccn2)c(F)c1 (stereo unspecified)
    7, 4
Cc1ccc(-c2nc3ccc(Cl)cn3c2NC(C)(C)C)cc1
    5, 2
Cc1nc(C(=O)N2CC[C@H](NC(=O)c3cnccn3)C[C@H]2C(=O)N[C@H](C)C(N)=O)cs1
    -10, -14

# Compounds from the list above that have two or more sulfur atoms, in the order listed:
# Fields: NPYLR7 ag, NPYLR7 ag max-min
Cc1c(C(=O)NCc2cccc(Cl)c2)sc(=O)n1Cc1ccc(S(C)(=O)=O)cc1
    12, 5
C=CCNC(=S)C(=C([O-])c1ccc(Cl)s1)[n+]1ccccc1
    1, 1
Cc1cc(C)c(C)c(S(=O)(=O)Nc2cc(SCC(=O)O)c(O)c3ccccc23)c1C
    -3, -7
C=CCN1C(=O)C(CSCC(=O)O)NC1=S (stereo unspecified)
    6, 8
Cc1cc2c(=O)n(C)c(SCc3ccc(Cl)cc3)nc2s1
    -3, -3

# Some of the entries above, reformatted:
COc1ccc(S(=O)(=O)N2CCC(Cc3ccccc3)CC2)cc1N1CCN(C(=O)[C@H](C)OC(C)=O)CC1
- NPYLR7 ag = 2
- NPYLR7 ag max-min = 1

CCCCN1C(=O)CC(C(=O)OCc2cc(=O)n3nc(CC)sc3n2)C1c1ccc(OC)cc1 (stereo unspecified)
- NPYLR7 ag = 3
- NPYLR7 ag max-min = 6

Cc1cccc(CO[C@]2(C(=O)NC3CC3)CC(OCc3ccccc3)[C@@H]3OC(C)(C)O[C@@H]3C2)c1 (stereo partly specified)
- NPYLR7 ag = 18
- NPYLR7 ag max-min = 24

# (cont.)
# Fields: NPYLR7 ag, NPYLR7 ag max-min
CCN(Cc1ccccc1)C(=O)[C@@H](NC(=O)c1ccc(Cl)cc1)C(C)C
    -3, -5
COc1ccccc1-n1c(SCc2nc(C(=O)NCCCN3CCCCC3C)cs2)nnc1-c1cccnc1 (stereo unspecified)
    16, 20
CN(C)S(=O)(=O)c1cc(C(=O)N2CCCC2c2ccc3c(c2)OCCCO3)ccc1Cl (stereo unspecified)
    -1, -2
Cc1cc(NC(=O)Cn2cnc3c(nnn3-c3ccc(C)c(Cl)c3)c2=O)no1
    1, -4
Fc1ccc(Oc2cc(N3CCN(Cc4ccc5c(c4)OCO5)CC3)ncn2)cc1F
    2, 6
Cc1cc(C)nc(SCc2c(C(=O)NCc3ccccc3Cl)nnn2-c2ccccc2)n1
    -1, -5
O=C(Cc1ccc2c(c1)CCO2)Nc1cccc(Br)c1
    -6, -8
Cc1nn(C)c(Cl)c1/C=C/C(=O)N1CCCC1CCc1ccccc1 (stereo unspecified)
    1, -1
CC12CC3CC(C)(C1)CC(C(=O)N1CCCC1c1nc(-c4ccccn4)no1)(C3)C2 (stereo unspecified)
    -9, -13
CNC(=O)CN(C)S(=O)(=O)c1ccc(C)cc1Cl
    0, 1
CC(C)(C)c1ccc(OCC(=O)Nc2ccc3[nH]cc(CCN4CCN(c5cccc(C(F)(F)F)c5)CC4)c3c2)cc1
    28, 19
COc1ccc(CN2CCN(S(=O)(=O)Cc3ccccc3)CC2)cc1OC
    2, 7
O=C(O)CCN(CCc1ccccc1)c1nc(-c2cccc(Br)c2)nc2ccccc12
    -5, 4
